Screening data deposited in PubChem by several laboratories.
eIF4H inh = human eIF4H binding inhibitors, primary screen, translation initiation inhibitor project, biochemical, uHTS, fluorescence polarization; Eukaryotic translation initiation factor 4H (Homo sapiens), Q15056; eIF4H fluorescence polarization binding assay; inhibition, % at 35 µM; 290,000 tested, 0.94% active;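 active = 50% or more with normal probe brightness, or confirmed in later tests; inconclusive = above 50% with abnormal brightness, or retests that disagree; inactive = below 50% or failed in later tests; about a fifth of its hits are not listed in these tables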;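 note: calls also rest on retests at 20 µM and on dose response follow-up; 0% = protein and probe with vehicle and 100% = probe without protein; strong numbers were not always called active; many hits fall short of the cut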
Yeast UUG start = modulators of yeast start codon fidelity, primary screen, whole organism, S. cerevisiae, single point, plate reader | AID 602363, 2012 | S. cerevisiae UUG-firefly luciferase reporter, luminescence/redox ratio | 350,000 tested, 0.13% active | activity score, % at 18.7 µM;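 active = replicate mean at a twofold rise or more, about +100% in these data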;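 note: firefly luciferase made from a UUG start codon reports start codon fidelity; reporter light over untreated wells divided by growth signal over untreated wells; some hits fall short of that in this replicate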
Env fusion inh = inhibitors of HIV-1 Env-driven cell-cell fusion, primary screen, HeLa-JRFL effector, CEM21 target cells, luciferase. inhibition, % at 12.3 µM. 360,000 tested, 1.1% active. AID 651610, 2012;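 active = mean replicate inhibition score of at least 50 and every replicate individually at or above 50; inconclusive = only one of the two criteria met; inactive = mean below 50 and not all replicates reaching 50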;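 note: 0% = plate neutral controls and 100% = maraviroc near 300 nM; one replicate is shown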
Rce1 inhib = yeast Rce1p protease inhibitors, primary screen, biochemical, fluorescence, cell-free homogeneous; CAAX prenyl protease 2 (Saccharomyces cerevisiae (strain ATCC 204508 / S288c)), Q03530; 290,000 tested, 0.27% active; calls only; yeast membranes, quenched prenylated peptide cleavage fluorescence;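 active = fall in fluorescence gain of 50% or more versus controls, with final raw signal at or below 3038400; inconclusive = same 50% fall but final raw signal above 3038400; inactive = fall in fluorescence gain under 50%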;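 note: plate controls were neutral control wells for no effect and wells lacking membranes for full effect; tested at 10 µM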
Target sequence (Q03530 whole entry, looked up): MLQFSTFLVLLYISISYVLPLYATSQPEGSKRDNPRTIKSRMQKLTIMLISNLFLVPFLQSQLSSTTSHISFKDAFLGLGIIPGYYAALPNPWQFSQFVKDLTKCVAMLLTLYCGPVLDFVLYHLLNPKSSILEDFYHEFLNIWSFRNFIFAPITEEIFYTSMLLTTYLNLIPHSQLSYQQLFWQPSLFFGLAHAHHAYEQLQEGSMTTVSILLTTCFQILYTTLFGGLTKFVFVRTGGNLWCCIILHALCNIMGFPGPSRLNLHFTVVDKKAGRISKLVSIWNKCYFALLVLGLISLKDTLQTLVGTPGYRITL
MT1-MMP act inh = blockers of MT1-MMP proenzyme processing, primary screen, HT1080 RFP-PRO-GFP cells, GFP/RFP fluorescence | GFP/RFP ratio fluorescence, overnight; percent of plate control window, DMSO zero | GFP/RFP ratio change, % at 20 µM | AID 651647, 2012 | 360,000 tested, 0.061% active;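 active = GFP/RFP ratio change of at least 30% with cell ATP level not reduced by more than half and red fluorescence within 50% of control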; note: strong numbers were not always called active
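system = RFP-PRO-GFP reporter HT1080 cells | dosing = 20 µM single dose, 1% DMSO | timing = overnight cell settling, then overnight compound exposure, 37 °C, 5% CO2 | read-out basis = GFP/RFP fluorescence ratio | controls = DMSO and RFP-L50D-GFP cell wells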
PABP FP inh = PABP poly(A) RNA binding inhibitors, primary screen, biochemical, fluorescence polarization, uHTS; inhibition, % at 35 µM; 290,000 tested, 1% active;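 active = 50% or more with normal probe brightness, or confirmed in later tests; inconclusive = above 50% with abnormal brightness, or retests that disagree; inactive = below 50% or failed in later tests; about a fifth of its hits are not listed in these tables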;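 note: calls also rest on retests at 20 µM and on dose response follow-up; controls were probe without protein and protein plus probe with vehicle; some compounds called inactive have numbers as strong as hits; many hits fall short of the cut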
CSC inhib = cancer stem cell viability inhibitors, primary screen, luminescence; cancer stem cell-like cells viability; inhibition, % at 7.5 µM; 300,000 tested, 1.1% active;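 active = mean at 75% or more and at least half the replicates too; inconclusive = mean and replicates disagree; tested in HMLE shEcad cells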;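 note: 0% = median of negative and 100% = median of positive control wells; the first replicate is given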
eIF4H inh retest = recorded beside eIF4H inh, whose call it bears; inhibition, %; compound at 20 µM; confirmation average;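 mean of two retest wells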
PABP FP inh retest = also measured in PABP FP inh; calls as there; inhibition, %; compound at 20 µM; confirmation repeats;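 mean of two retest wells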
MT1-MMP act inh RFP = further read-out of MT1-MMP act inh, marked with its call; RFP signal change, %; measured here: RFP expression control read;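 0 = vehicle wells; hits needed this value within 50% of zero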
* = called active by the depositor; i = inactive; ? = inconclusive; nt = not tested or not shown; + = active, no number; & = joins results of further samples.

SMILES | eIF4H inh | Yeast UUG start | Env fusion inh | Rce1 inhib | MT1-MMP act inh | MT1-MMP act inh RFP | PABP FP inh | CSC inhib | others
CCC(C)c1ccccc1NC(=O)COC(=O)CCc1cc(OC)c(OC)c(OC)c1 (stereo not given) | -12 | nt | nt | i | 1 | 4 | -5 | 4
Cn1ncc(=S)[nH]c1=S | nt | -15 | 0 | nt | -1 | 4 | nt | nt
CCOc1cccc(C(=O)Nc2ccc(N3CCN(S(C)(=O)=O)CC3)cc2)c1 | -5 | -18 | nt | i | nt | nt | -1 | nt
O=C(Nc1ccc(Oc2ccccc2)nc1)C1CCN(Cc2ccco2)CC1 | 3 | 3 | 10 | i | 1 | 0 | 3 | -11
Cn1c(SCc2ccc(Br)cc2)nc2ccccc2c1=O | -18 | -17 | ? | i | 0 | -27 | 8 | 4
CN(C)c1ccc(C(=O)c2ccc(O)cc2O)cc1 | -12 | -21 | nt | i | -2 | 1 | -5 | 5
CCCCNc1cccc2c1S(=O)(=O)N(CCCC)CC(COCc1ccccc1)O2 (stereo not given) | nt | -18 | 61* | nt | -7 | -11 | nt | nt
CC[n+]1c(/C=C/N(C)c2ccccc2)oc2ccccc21 | 66 | -7 | 19 | i | -28 | -20 | 9 | nt | eIF4H inh retest=-3;PABP FP inh retest=12
CCc1nc2nc(C)c(NS(=O)(=O)c3ccc4c(c3)CCCC4)c(=O)n2[nH]1 | -5 | -3 | -9 | nt | 0 | 4 | 1 | -5
COC(=O)CSc1nc(C)c(C)c(C)c1C(N)=O | 2 | nt | -2 | i | 4 | 2 | -3 | 4
CSCCC(NC(=O)c1ccc(C(C)(C)C)cc1)C(=O)O (stereo not given) | 7 | nt | 14 | i | -2 | 6 | 11 | 0
O=C(C1CCC1)N1CCN(c2ccc(Cl)cc2)CC1 | 2 | -18 | -18 | i | 2 | -1 | 16 | -7
Cc1ccc(CSCCNC(=O)c2ccc(Cl)c(S(=O)(=O)N3CCOCC3)c2)cc1 | 3 | 14 | 85* | i | 0 | -16 | 2 | 2
N#CC1=C(N)Oc2cc3ccccc3cc2C1c1cccnc1 (stereo not given) | 14 | -5 | nt | i | -13 | -17 | -1 | 59
Cc1nc2sc(C(c3cccs3)N3CCN(C(=O)c4ccco4)CC3)c(O)n2n1 (stereo not given) | -8 | -8 | 13 | i | 2 | 4 | -1 | -6
O=C(c1ccc2c(c1)C(=O)N(Cc1ccco1)C2O)N1CCOCC1 (stereo not given) | 7 | 8 | 4 | i | 0 | 4 | 7 | -8
COc1cccc(CNC(=O)CCCC(=O)Nc2cccc([N+](=O)[O-])c2)c1 | 1 | 1 | -56 | i | 3 | 0 | -1 | -9
CC(C)Oc1cccc(C(=O)NC(=S)Nc2ccccc2)c1 | -5 | nt | nt | i | -3 | -3 | -6 | 34
COc1ccc2c(C(F)(F)F)cc(=O)oc2c1C | -9 | -12 | -49 | i | 0 | 4 | 2 | -4
COC(=O)CSc1nc(C2CC2)nc2ccccc12 | 0 | -9 | nt | i | 2 | -2 | -1 | -11
CCN(C1CCCCC1)S(=O)(=O)c1cc(C)ccc1OC | -5 | -14 | -1 | i | -2 | 1 | -6 | -8
C/C(N)=C(/C#N)C(=O)COC(=O)c1ccccc1C(=O)c1ccc(C)cc1 | 0 | nt | 10 | i | 3 | -5 | -11 | -6
N#C/C(=C/c1ccc(Sc2nc3ccccc3[nH]2)o1)c1ccccc1F | -3 | nt | 73* | i | -4 | -11 | 0 | nt
Cc1cccc(C)c1Nc1ncnc2ccccc12 | 6 | -6 | -8 | i | 1 | 4 | 4 | -6
C=C(C)Cn1c(SCC(=O)O)nnc1-c1ccc(OC)cc1 | -6 | -8 | -3 | i | 2 | 3 | -1 | -8

(next part)
SMILES | eIF4H inh | Yeast UUG start | Env fusion inh | Rce1 inhib | MT1-MMP act inh | MT1-MMP act inh RFP | PABP FP inh | CSC inhib | others
CCN(CC)C(=O)Cn1cc(C(=O)C(=O)NCCc2ccc(S(N)(=O)=O)cc2)c2ccccc21 | -2 | nt | -6 | i | 2 | -1 | 20 | -5
CC(=O)C1=C(O)C(=O)N(CCc2c[nH]c3ccccc23)C1c1ccc(C)cc1 (stereo not given) | 0 | nt | -1 | i | 3 | -1 | -1 | -2
CCC1=NN(C(=O)c2ccc(Br)cc2)C(O)(c2ccccc2)C1 (stereo not given) | -2 | nt | -6 | i | -2 | 1 | 8 | -11
Cc1nc2ccc(NC(=O)c3c(-c4ccccc4)noc3C)cc2s1 | -10 | -20 | nt | i | 0 | 1 | 1 | -3
COc1ccc(C2(CNC(=O)c3cccc([N+](=O)[O-])c3)CCCCC2)cc1OC | -2 | -2 | -28 | i | 3 | -5 | 14 | -7
CC1=C(C(=O)OCCNC(=O)c2cccnc2)C(c2cccc([N+](=O)[O-])c2)C(C(=O)OCCN(C)C)=C(C)N1 (stereo not given) | -10 | nt | 16 | i | -9 | -2 | 5 | -5
COc1cccc(C2c3[nH]c4ccccc4c3CCN2Cc2cnc(C)s2)c1OC (stereo not given) | -9 | -9 | 2 | i | -12 | -3 | -1 | 1
Cc1c(N/N=C(\C#N)C(=O)c2ccc(Cl)cc2)c(=O)n(-c2ccccc2)n1C | 14 | nt | 32 | i | -62 | -5 | 0 | 26
CC(C)(C)c1ccc(S(=O)(=O)N(CCCN2CCOCC2)Cc2cccs2)cc1 | 10 | 3&-3 | nt | i | 2&13 | 1&-11 | -7 | nt
CC1(C(=O)OCC(=O)NC(=O)c2ccccc2)CC1(Cl)Cl (stereo not given) | nt | nt | 1 | i | 3 | -5 | nt | 11
CCOC(=O)c1ccccc1NC(=O)CSc1nc2ccccc2n1CC(=O)N1CCCC1 | -4 | -4 | nt | i | 2 | 1 | 4 | -5
Cc1ccc2c(c1)OC(c1ccc3c(c1)OCCO3)CC2=O (stereo not given) | -8 | -5 | 0 | i | 0 | -2 | -2 | 2
CCOC(=O)c1cccc(NC(=O)COC)c1 | 0 | nt | nt | i | 2 | 2 | -2 | -4
Cc1cc(C)cc(Nc2nc3ccc(C)cc3n3cnnc23)c1 | -10 | -7 | -21 | i | 4 | 0 | 5 | -10
C#CCOc1ccc2c3c(c(=O)oc2c1)CCCC3 | -7 | -5 | -8 | i | -1 | -3 | -6 | -6
CCC(C)[C@@H](NC(=O)OC(C)(C)C)c1nnc(S(=O)(=O)Cc2cccc(C)c2)o1 (stereo not given in full) | -6 | nt | nt | i | 6 | 2 | -4 | nt
COc1ccccc1-c1cc(C(=O)NCc2ccc(F)cc2)no1 | -7 | -12 | nt | i | 4 | 1 | -13 | 19
CNC(=S)N/N=C/c1ccc(N(C)C)cc1 | 0 | nt | -45 | i | -2 | -3 | 0 | -5
Cc1c(NC(=O)c2ccc(S(=O)(=O)N(C)C)cc2)cccc1-n1cnnn1 | nt | -15 | nt | nt | -2 | 4 | nt | -8
COC(=O)CNC(=O)C12CC3(C)CC(C)(CC(C)(C3)C1)C2 | 7 | -12 | nt | i | 3 | 5 | -4 | -3
Cc1cccc(CCNS(=O)(=O)c2cnc[nH]2)c1 | -3 | -14 | -15 | i | -6 | 0 | -8 | 15
CC(C)c1onc(C(=O)N2CCN(c3ccc(F)cc3)CC2)c1[N+](=O)[O-] | -6 | -3 | nt | i | 4 | 1 | 10 | -10
CC(=O)Nc1ccc2c(c1)CCCN2C(=O)c1ccccc1 | -4 | 4 | nt | i | 0 | 1 | 1 | -2
CCN(C(=O)COC(=O)c1ccc(COc2ccc3c(C)cc(=O)oc3c2)cc1)C1CCS(=O)(=O)C1 (stereo not given) | -4 | -12 | 19 | i | 3 | 2 | 23 | -24
COc1ccc(N(CC(=O)NC2CCCC2)C(=O)CCC(=O)Nc2nc(C)cs2)cc1OC | -9 | -14 | -2 | nt | 1 | 2 | -10 | -18

6 entries out of the list, ordered by formula weight, low to high:
SMILES | eIF4H inh | Yeast UUG start | Env fusion inh | Rce1 inhib | MT1-MMP act inh | MT1-MMP act inh RFP | PABP FP inh | CSC inhib | others
Cn1ncc(=S)[nH]c1=S | nt | -15 | 0 | nt | -1 | 4 | nt | nt
C#CCOc1ccc2c3c(c(=O)oc2c1)CCCC3 | -7 | -5 | -8 | i | -1 | -3 | -6 | -6
CC(=O)Nc1ccc2c(c1)CCCN2C(=O)c1ccccc1 | -4 | 4 | nt | i | 0 | 1 | 1 | -2
CC(C)Oc1cccc(C(=O)NC(=S)Nc2ccccc2)c1 | -5 | nt | nt | i | -3 | -3 | -6 | 34
CC(C)c1onc(C(=O)N2CCN(c3ccc(F)cc3)CC2)c1[N+](=O)[O-] | -6 | -3 | nt | i | 4 | 1 | 10 | -10
CC1=C(C(=O)OCCNC(=O)c2cccnc2)C(c2cccc([N+](=O)[O-])c2)C(C(=O)OCCN(C)C)=C(C)N1 (stereo not given) | -10 | nt | 16 | i | -9 | -2 | 5 | -5

Random excerpt: two records from the list, in no set order.
SMILES | eIF4H inh | Yeast UUG start | Env fusion inh | Rce1 inhib | MT1-MMP act inh | MT1-MMP act inh RFP | PABP FP inh | CSC inhib | others
CCC1=NN(C(=O)c2ccc(Br)cc2)C(O)(c2ccccc2)C1 (stereo not given) | -2 | nt | -6 | i | -2 | 1 | 8 | -11
Cc1cccc(CCNS(=O)(=O)c2cnc[nH]2)c1 | -3 | -14 | -15 | i | -6 | 0 | -8 | 15

Remaining list, next part
SMILES | eIF4H inh | Yeast UUG start | Env fusion inh | Rce1 inhib | MT1-MMP act inh | MT1-MMP act inh RFP | PABP FP inh | CSC inhib | others
Cc1cc(Cn2nc(C(=O)NCc3cccc(Br)c3)cc2-c2ccccc2)on1 | nt | -14 | 5 | nt | 11 | -1 | nt | 11
CCCCc1nnc(NC(=O)CSc2nc(O)c(Cc3ccccc3)c(=O)[nH]2)s1 | 2 | nt | 5 | i | -1 | -2 | -9 | 7
CCCOc1ccc(-c2c(C(=O)N/N=C/c3cccs3)nnn2-c2nonc2N)cc1 | nt | -13 | nt | + | 3 | 3 | nt | 6
CCNC(=O)CC1C(=O)N(CC)C(=S)N1NC(=O)c1cccnc1 (stereo not given) | 3 | -12 | -9 | i | 0 | 2 | 7 | -1
COCCNC(=O)C1(C)CCCN(Cc2ccc(C)c3ccccc23)C1 (stereo not given) | nt | -13 | 13 | nt | 2 | 3 | nt | nt
CCc1ccc(NC(=O)Cn2cnc([N+](=O)[O-])c2)cc1 | -18 | -11 | 5 | nt | -3 | -4 | -6 | -2
CC(C)(C)n1nnnc1C(c1ccc(C#N)cc1)N1CCCC2(CCCCC2)C1 (stereo not given) | 7 | -5 | nt | i | -51 | -33 | 0 | 6
COc1cc(/C=C/C(=O)OCC(=O)NC2CCCCCCC2)ccc1O | nt | -21 | -6 | nt | 2 | 4 | nt | 11
COc1ccc(S(=O)(=O)N2CCOCC2)cc1NC(=O)COC(=O)C1CC1C (stereo not given) | nt | -2 | i | nt | -1 | 4 | nt | -8
Cc1cccc(C)c1NC(=O)CNC(=O)CNC(=O)Cc1cccc2ccccc12 | nt | 2 | nt | nt | -1 | 1 | nt | 12

The list is partial. The share of hits here may be higher or lower than overall.
